# NPYLR7 agonist: activates Aedes aegypti NPYLR7 receptor; HEK293T NPYLR7/Galpha15, GCaMP6s calcium fluorescence; activation, % at 10 µM; 270,000 tested, 0.15% active; AID 1259423; in the data active = activation above about 40%;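 also: 0% = vehicle and 100% = reference agonist at the receptor; some compounds past the cut are filed as inactive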
# NPYLR7 agonist max-min: recorded beside NPYLR7 agonist, whose call it bears; activation, %; measured here: Max-Min RFU normalised activation; some inactives read as strong as hits;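 span of the calcium signal over five minutes; 0% = vehicle and 100% = native peptide agonist; compound fluorescence can raise it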
# Numbers without * were called inactive; & = joins results of further samples. The list is partial, so the mix of outcomes need not match the whole.
structure	NPYLR7 agonist	NPYLR7 agonist max-min
Cc1nc2ccc(Cl)cn2c1C(=O)NC1CCC(n2cnnc2)CC1 (stereo not given)	6	1
CCC12CC3CC(C1)CC(C(=O)O)(C3)C2	6	7
CC1(C(=O)N2CCCC2)CCN1C(=O)Cc1ccc(Cl)cc1Cl (stereo not given)	-5	-4
O=C(NCCC(=O)N1CCOC(COc2ccc(F)cc2)C1)OCc1ccccc1 (stereo not given)	25	22
Brc1ccc2nc(-c3cccs3)cn2c1	14	9
COc1ccc(-c2cn3nc(SCC(=O)Nc4nc5ccc(C)cc5s4)ccc3n2)cc1	9	8
Cc1nc(N(C)C/C=C/c2ccccc2)c2cnn(C)c2n1	25	12
O=S(=O)(NCCOc1ccc(-c2cccs2)nn1)c1ccc2ccccc2c1	-1	-1
O=C(C1CCC(=O)N(C2CC2)C1)N1CCN(Cc2ccc3c(c2)OCO3)CC1 (stereo not given)	-3	-5
O=C(CN(c1cccc([N+](=O)[O-])c1)S(=O)(=O)c1ccccc1)Nc1ccc(I)cc1	4	9
CCOC(=O)C1CCN(C(=O)c2ccc(CSc3nc(-c4ccccc4)cc(N4CCN(c5ccccc5Cl)CC4)n3)cc2)CC1	1	-5
CN(C)/C=C1\C(=O)c2ccc(N(C)C)nc2CC1c1ccccc1 (stereo not given)	3	42
O=C(Cn1c(O)c(N=Nc2ccc([N+](=O)[O-])cc2[N+](=O)[O-])c2ccccc21)Nc1ccccc1	0	-5
CCCOc1ccccc1C1NC(=O)NC(C)=C1C(=O)OCC(C)C (stereo not given)	-2	-6
c1ccc2c(-c3nc(C4CCCCC4)no3)cc(-c3ccncc3)nc2c1	4	1
CC(C)c1ccc(Nc2ncc3c(n2)CCN(C(=O)Nc2cccnc2)C3)cc1	-1	-6
Cc1nc(N(C)C)c2sc(=S)n(C)c2n1	2	-2
C(=C1CCc2cn[nH]c21)c1ccccc1	-3	-3
COc1ccc(CCN(Cc2ccc(C)o2)C(=O)CNCCN2CCCC2)cc1OC	37	27
Cc1c(C)n2c3c(=O)n(CC(C)C)c(=O)n(C)c3nc2n1-c1ccccc1F	2	3
COCCCN(CC(=O)N(Cc1ccccc1)Cc1cccn1Cc1ccc(F)cc1)C(=O)c1ccc(Cl)cc1	10	5
CC(C)N1CCC(NC(=O)c2cc(=O)[nH]c3ccccc23)C1 (stereo not given)	1	0
COC(=O)N=Nc1c(O)[nH]c2ccc(Br)cc12	1	1
O=C(NCC1CCCCC1)NC1CCN(c2ccccc2F)C1=O (stereo not given)	5	4
CCN(Cc1nccn1Cc1cccc(Cl)c1)C(=O)c1cccc(F)c1	-4	3
COc1ccc(C(=O)Oc2cc(C)[nH]c(=O)c2[N+](=O)[O-])cc1	0	-1
CCOCC(=O)N1CCC(c2ccnc(-c3ccc4ncccc4c3)c2)C1 (stereo not given)	-2	-1
O=C(CCCSc1ccccc1)N1CCC(NS(=O)(=O)c2ccccc2)CC1	0	5
c1cnn(CCCNc2nc3nonc3nc2N2CCCCCC2)c1	4	-2
CN=c1scc(-c2ccc(Br)cc2)n1N=Cc1ccc(O)c(OC)c1	-8	-11
CC1CCCC(NC(=O)c2cccnc2N2CCCC2)C1 (stereo not given)	10	8
CN(C)[C@@H]1C[C@@H](CO)N(C(=O)c2cc3c(-c4ccccc4)nn(C)c3s2)C1	2	17
COc1ccc(-c2ccc(C)c(NC(=O)C(C)C)c2)nn1	2	12
CN(C)C(=O)c1cc(NC(=O)c2cc(Cl)cc3cccnc23)ccc1Cl	2	33
CN(Cc1cccnc1)C(=O)c1coc(COc2ccc(F)cc2Cl)n1	-3	-4
Cc1ccc(N2CCCC2)c(C(=O)N2CCN(c3ccc(Cl)nn3)CC2)c1	0	4
Cc1c(C(=O)c2ccc(Cl)cc2)oc2ccc(NC(=O)C3CC3)cc12	-1	-2
COc1cccc(-c2nc(COC(=O)c3nnn(-c4ccc(Cl)cc4)c3C)c(C)o2)c1OC	8	-1
Cc1c(C(=O)OCC(=O)c2ccc(Cl)s2)sc2nc3n(c(=O)c12)CCC3	-1	-2
Cc1cccc(CC(=O)Nc2cnn(-c3cccc(C(=O)N4CCN(c5cnccn5)CC4)c3)c2)c1	-7	-11
CC(C)(C)c1[nH]nc2c1C(c1c(F)c(F)c(F)c(F)c1F)C(C#N)C(=N)O2 (stereo not given)	5	1
CCCc1cc(=O)[nH]c(-n2nc(C)cc2NC(=O)/C=C/c2ccc(OC)c(OC)c2)n1	10	5
Cc1nonc1CC(=O)NC1CCCc2c1cnn2-c1ccc(F)cc1F (stereo not given)	-2	-4
CCc1ccc(S(=O)(=O)NCCCn2nc(-c3ccco3)ccc2=O)s1	-3	-6
CCn1c(SC(C)C(=O)NC2CCCC2)nnc1-c1cccs1 (stereo not given)	17	3
COCC(=O)Nc1c(-c2cccc(OC)c2)nc2ccccn12	6	13
O=C1COc2ccc(S(=O)(=O)Nc3ccc4c(c3)OCO4)cc2N1	-1	0
CC(c1ccccc1)N(Cc1cccc(Cl)c1)Cc1nc(C(=O)NCc2ccco2)co1 (stereo not given)	23	28
CC1CNC(=O)CCN1Cc1ccc(C#CC(C)(C)O)cc1 (stereo not given)	5	1
Cn1ccnc1SCc1cc(=O)c(OC(=O)c2cc3ccccc3o2)co1	-3	-6

# (next part)
structure	NPYLR7 agonist	NPYLR7 agonist max-min
O=C(NCc1cccs1)c1cnc2ccccn2c1=O	4	3
CC(=O)c1ccc(-c2cc(F)cc3c2OC(CNC(=O)Cc2ccccc2C)C3)s1 (stereo not given)	2	-2
COc1ccc(CNC(=O)c2cccnc2N2CCN(C(=O)c3cc(C)oc3C)CC2)cc1	-6	-16
Cc1ccc(-n2c(SCc3nc(C(=O)NC4CC4)cs3)nnc2-c2ccncc2)cc1	18	25
Cn1c(N)c(C(=O)CN2CCn3cccc3C2c2ccccc2)c(=O)[nH]c1=O (stereo not given)	1	-4
COc1cccc([C@@H]2c3c(C)nn(C)c3NC(=O)[C@H]2NC(=O)c2cccc(C)c2)c1	1	-1
Cc1cccn2c(=O)c(C(=O)NC3CC(C)CC(C)(C)C3)c(O)nc12 (stereo not given)	0	4
O=C(c1cn(-c2cc(N3CCCCC3)ncn2)cn1)N1CCc2ccccc2C1	-11	-14
Cc1ccc(CNC(=O)c2cn(C)c3c(=O)n(-c4ccc(C)cc4)c(=O)[nH]c23)cc1	3	3
CCN(C)c1ccccc1NC(=O)N1CCCCC1c1ncc[nH]1 (stereo not given)	-25	-26
O=C(Nc1nc2ccc(F)cc2s1)c1cccc(S(=O)(=O)N2CCOCC2)c1	9	11
CS(=O)(=O)c1ccc(N)cc1	2	1
CCCOc1cccn2c(N(C)C(=O)c3ccco3)c(CC)nc12	3	-7
O=S(=O)(c1ccc(Cl)cc1)N1CCCC(OCc2ccccc2Cl)C1 (stereo not given)	-7	0
CCOC(=O)C1=C(O)/C(=C\c2ccc(OC)cc2O)SC1=Nc1ccc([N+](=O)[O-])cc1	2	8
COc1cccc(-c2nc3cccc(C)n3c2NC(C)(C)CC(C)(C)C)c1	1	3
Cc1ccc(CSc2sc3c(O)cc(=O)[nH]c3c2C(N)=O)cc1	0	-2
CO[C@H]1CN(C(=O)CCc2nc3ccccc3[nH]2)CC[C@H]1N	3	2
CCC(C)N(Cc1cccc(Cl)c1)C(=O)c1ccc(C#CC(C)(C)O)o1 (stereo not given)	-1	0
O=C(NCc1cccnc1-n1ccnc1)c1cnc(-c2cccnc2)nc1	24	15

# Rewritten with values under each structure: 3 of the compounds above.
# Values run as follows: NPYLR7 agonist, NPYLR7 agonist max-min
Cc1ccc(CSc2sc3c(O)cc(=O)[nH]c3c2C(N)=O)cc1
 : 0, -2
O=C(NCc1cccnc1-n1ccnc1)c1cnc(-c2cccnc2)nc1
 : 24, 15
CCCOc1cccn2c(N(C)C(=O)c3ccco3)c(CC)nc12
 : 3, -7

# Continued.
structure	NPYLR7 agonist	NPYLR7 agonist max-min
COc1cccc(NC(=O)CN2CCCC(N3CCCC3=O)C2)c1 (stereo not given)	9	4
CCCCN(CC(=O)Nc1cc(C(C)(C)C)nn1-c1ccc(OC)cc1)C(=O)Nc1ccc(SC)cc1	-2	11
CCCc1cc(=O)[nH]c(-n2nc(C)cc2C)n1	-3	-6
Cc1nc2n(n1)C(=O)C(C(c1ccc(C(C)C)cc1)N1CCC(O)CC1)S2 (stereo not given)	9	3
COc1ccc(OC)c2c1sc(=NC(=O)CCS(=O)(=O)c1ccc(F)cc1)n2C	3	2
Cc1nn(CC(=O)N(C)CC(=O)Nc2ccc(Cl)c(C(F)(F)F)c2)c(C)c1[N+](=O)[O-]	2	1
CCN1CCN(c2ccc(C(=O)N3CCCC(c4ccccc4)CC3)cn2)CC1 (stereo not given)	10	3
O=C1NCC2(CCCN(C(=O)CCCn3cncn3)C2)O1 (stereo not given)	6	4
CC1(C)CC(=O)C2C(=Nc3ccccc3N(C(=O)Cc3ccc(Cl)cc3)C2c2ccccc2F)C1 (stereo not given)	2	-1
CC1CCN(C(=O)COc2ccccc2-c2[nH]cnc2-c2ccccc2)CC1	3	2
O=C1CCCN1CC1CCCNC1 (stereo not given)	-2	5
CC(C)COC(=O)N1[C@@H](c2ccco2)[C@@H](CO)C[C@]12CCCCN(CCO)C2=O	8	22
O=C(NCc1nnnn1C1CCCCC1)c1c(F)cccc1F	32	18
O=C(CSc1nc(=O)n(Cc2ccco2)c2c1CCC2)Nc1ccccc1	-12	-12
COc1cc(NC(=O)c2cc(=O)c3cc(C)ccc3o2)cc(OC)c1	2	-2
Cc1ccccc1C(C)NC(=O)CCc1c(C)nc2ncnn2c1C (stereo not given)	2	34
COC(=O)c1ccc(-c2nc(CN3CCCC3c3ccccc3OC)c(C)o2)cc1 (stereo not given)	-8	-10
Cc1cc(C)n(-c2ccc(C(=O)N3CCCCC3)cc2)n1	4	2
c1ccc(CCc2n[nH]c(COc3ccc4c(c3)OCO4)n2)cc1	2	0
CCCCCc1ccc(C(=O)Nc2ccc(N3CCCC3)c(C(=O)NC(C)C)c2)cc1	9	12
O=S(=O)(Nc1cnn(Cc2cccnc2)c1)c1cccc(F)c1F	4	3
CSC(=S)N/N=C(/c1ccccc1)c1ccccn1	-1	0
Cc1ccsc1CNc1ccc(C(=O)NCC(O)CO)cc1 (stereo not given)	13	11
CC(C)CN(CCC(=O)NC(C)CCc1ccccc1)c1nc(Cc2ccccc2)ns1 (stereo not given)	0	-5
CCOc1ncccc1CN1CCCC(C(=O)NCCc2ccc(S(N)(=O)=O)cc2)C1 (stereo not given)	-15	-19
Cc1nn(C)c(C)c1S(=O)(=O)N1CCN2C(=O)CN(C)C(=O)C2C1 (stereo not given)	6	5
CCC1CCC(=NNC(=O)OC(C)(C)C)CC1 (stereo not given)	5	3
COc1cc(OC)cc(C(=O)N2CCCC2C(=O)Nc2nnc(-c3cccc(Cl)c3)s2)c1 (stereo not given)	0	13
COCCNC(=O)C1(C)CCN(Cc2ccc3c(c2)OCO3)C1 (stereo not given)	1	2
CC(C)CCc1noc(CN(C)CCN2CCOCC2)n1	15	6

# One compound at a time, as listed above. Values in the order: NPYLR7 agonist	NPYLR7 agonist max-min
# CN=c1scc(-c2ccc(Br)cc2)n1N=Cc1ccc(O)c(OC)c1 is listed with -8	-11
# COCCCN(CC(=O)N(Cc1ccccc1)Cc1cccn1Cc1ccc(F)cc1)C(=O)c1ccc(Cl)cc1 is listed with 10	5
# O=C(CN(c1cccc([N+](=O)[O-])c1)S(=O)(=O)c1ccccc1)Nc1ccc(I)cc1 is listed with 4	9
# CC(C)(C)c1[nH]nc2c1C(c1c(F)c(F)c(F)c(F)c1F)C(C#N)C(=N)O2 (stereo not given) is listed with 5	1

# The results go on:
structure	NPYLR7 agonist	NPYLR7 agonist max-min
CCc1c(C)nc(-n2nc(C)cc2C)n(CC(=O)Nc2cccc(Cl)c2)c1=O	1	-2
N#Cc1ccc(NCC(=O)Nc2ccc(Br)cc2)nc1	-2&0	-4&5
CSc1cccc(NC2=NC3CS(=O)(=O)CC3S2)c1 (stereo not given)	-1	0
Cc1cccnc1CN1CCN(C(=O)c2cn3ccsc3n2)CC1	1	3
Cc1nc(C)n(CCCc2ccccc2C)n1	16	9
CNC(=O)CN(C(=O)C1CCC1)[C@@H]1C[C@@H]2CO[C@H](c3ccccc3)C[C@@H]2C1	19	18
CNC(=S)N(CCCn1ccnc1)Cc1c(F)cccc1Cl	-5	-4
COCc1nnc2sc(Cc3ccc4c(c3)CCCC4)nn12	4	4
CC(C)CN(Cc1cccs1)C(=O)c1cc2n(n1)CCCN(C)C2	21	8
C=CCN(CC=C)C(=O)CN1CC=C(n2c(=O)[nH]c3ccccc32)CC1	9	12

# The final three records of the part above come first, to join the parts.
structure	NPYLR7 agonist	NPYLR7 agonist max-min
COCc1nnc2sc(Cc3ccc4c(c3)CCCC4)nn12	4	4
CC(C)CN(Cc1cccs1)C(=O)c1cc2n(n1)CCCN(C)C2	21	8
C=CCN(CC=C)C(=O)CN1CC=C(n2c(=O)[nH]c3ccccc32)CC1	9	12
CCCN(CC1CC1)C(=O)CN1C(=O)NC(C)(c2ccc(Cl)cc2Cl)C1=O (stereo not given)	16	23
CCCN1C(=O)C(=Cc2ccc(OC)cc2OC)SC1=S	9	11
CCCC(O)CN(Cc1cc(OC)cc(OC)c1)C1CC1 (stereo not given)	16	11
CC1CN(c2cc(Cl)nc(SCC(=O)NCCN3CCCC3)n2)CCN1C(=O)c1ccc(F)cc1 (stereo not given)	-5	2
CCC(c1ccnn1C)n1cnc(-c2ccccc2)c1-c1nccn1C (stereo not given)	8	-8
Cc1ccc2c(C)c(C(=O)N3CCCC(CO)(Cc4ccc(F)cc4F)C3)oc2c1 (stereo not given)	-2	-6
OC1(Cc2cc(-c3ccccc3)no2)CCN(CCCC(F)(F)F)CC1	3	1
